Env fusion inh: inhibitors of HIV Env-mediated cell fusion. HeLa-JRFL Env/CEM21 cell fusion, luciferase. inhibition, % at 12.3 µM. 360,000 compounds, 1.1% hits. AID 651610;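 active means mean replicate inhibition score of at least 50 and every replicate individually at or above 50; inconclusive means only one of the two criteria met; inactive means mean below 50 and not all replicates reaching 50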;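 further: 0% = plate neutral controls and 100% = maraviroc near 300 nM; one replicate is shown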
Yeast UUG start: modulators of start codon recognition fidelity in yeast. S. cerevisiae UUG-firefly luciferase reporter, luminescence/redox ratio. activity score, % at 18.7 µM. 350,000 compounds, 0.13% hits. AID 602363;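 active means replicate mean at a twofold rise or more, about +100% in these data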;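 further: firefly luciferase made from a UUG start codon reports start codon fidelity; reporter light over untreated wells divided by growth signal over untreated wells; some hits fall short of that in this replicate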
eIF4H inh: inhibitors of RNA binding by human eIF4H; Q15056; eIF4H fluorescence polarization binding assay; inhibition, % at 35 µM; 290,000 compounds, 0.94% hits; AID 2012;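 active means 50% or more with normal probe brightness, or confirmed in later tests; inconclusive means above 50% with abnormal brightness, or retests that disagree; inactive means below 50% or failed in later tests; about a fifth of its hits are not listed in these tables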;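 further: calls also rest on retests at 20 µM and on dose response follow-up; 0% = protein and probe with vehicle and 100% = probe without protein; strong numbers were not always called active; many hits fall short of the cut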
Rce1 inh: inhibitors of yeast Ras-converting enzyme | Q03530 | yeast membranes, quenched prenylated peptide cleavage fluorescence | 290,000 compounds, 0.27% hits | calls only;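 active means fall in fluorescence gain of 50% or more versus controls, with final raw signal at or below 3038400; inconclusive means same 50% fall but final raw signal above 3038400; inactive means fall in fluorescence gain under 50%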;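 further: plate controls were neutral control wells for no effect and wells lacking membranes for full effect; tested at 10 µM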
Target sequence (Q03530 whole entry, looked up): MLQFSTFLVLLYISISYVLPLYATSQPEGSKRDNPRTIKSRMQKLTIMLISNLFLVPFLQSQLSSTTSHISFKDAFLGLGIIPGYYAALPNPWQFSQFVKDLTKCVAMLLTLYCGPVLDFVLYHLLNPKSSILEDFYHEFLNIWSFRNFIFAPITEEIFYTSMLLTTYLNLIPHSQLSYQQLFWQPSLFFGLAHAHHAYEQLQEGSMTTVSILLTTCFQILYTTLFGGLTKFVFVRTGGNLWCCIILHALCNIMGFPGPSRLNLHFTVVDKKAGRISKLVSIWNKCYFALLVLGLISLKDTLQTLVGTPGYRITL
MT1-MMP act inh: blocks activation of human MT1-MMP; P50281; HT1080 RFP-PRO-GFP cells, GFP/RFP ratio fluorescence, overnight; percent of plate control window, DMSO zero; GFP/RFP ratio change, % at 20 µM; 360,000 compounds, 0.061% hits; AID 651647;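 active means GFP/RFP ratio change of at least 30% with cell ATP level not reduced by more than half and red fluorescence within 50% of control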; further: strong numbers were not always called active
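Test system: HT1080 cells expressing an RFP-PRO-GFP fluorescent reporter construct / Compound dosing: single-point 20 µM compound, 1% DMSO / Schedule: cells overnight before dosing, compound overnight, 37 °C, 5% CO2 / Evaluation: GFP/RFP fluorescence ratio / Control set: DMSO and RFP-L50D-GFP cell wells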
CSC inhib: cancer stem cell inhibition; cancer stem cell-like cells viability, luminescence; inhibition, % at 7.5 µM; 300,000 compounds, 1.1% hits; AID 2717;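 active means mean at 75% or more and at least half the replicates too; inconclusive means mean and replicates disagree; tested in HMLE shEcad cells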;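 further: 0% = median of negative and 100% = median of positive control wells; the first replicate is given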
PABP FP inh: blocks human PABP binding to poly(A) RNA; inhibition, % at 35 µM; fluorescence polarization; 290,000 compounds, 1% hits; P11940;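 active means 50% or more with normal probe brightness, or confirmed in later tests; inconclusive means above 50% with abnormal brightness, or retests that disagree; inactive means below 50% or failed in later tests; about a fifth of its hits are not listed in these tables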;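 further: calls also rest on retests at 20 µM and on dose response follow-up; controls were probe without protein and protein plus probe with vehicle; some compounds called inactive have numbers as strong as hits; many hits fall short of the cut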
MT1-MMP act inh RFP: further read-out of MT1-MMP act inh, marked with its call; RFP signal change, %; measured here: RFP expression control read;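 0 = vehicle wells; hits needed this value within 50% of zero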
Starred values were filed as active, the others as inactive; i = inactive; ? = inconclusive; · = not tested or not shown; & = joins results of further samples.

SMILES	Env fusion inh	Yeast UUG start	eIF4H inh	Rce1 inh	MT1-MMP act inh	MT1-MMP act inh RFP	CSC inhib	PABP FP inh
CS(=O)(=O)N1CCCC(C(=O)NCCCN2CCOCC2)C1 (stereo not given)	·	-16	-2	i	3	5	-6	-2
O=C(NCc1ccccc1)/C(=C/c1ccc(OC(F)F)cc1)c1ccccc1	13	-4	-12	i	-5	-6	-12	7
Cc1cc(=O)cc(C)n1-c1ccc(O)cc1	-2	·	-2	i	3	2	-4	-10
CC(=O)OCc1ccccc1Sc1ccccc1C(=O)NCc1ccccc1	-8	·	-4	i	0	-2	-11	-1
C=CCNC(=S)Nc1ccc2cn[nH]c2c1	10	·	-7	i	-2	3	-4	1
COc1ccccc1NS(=O)(=O)c1cccc(C(=O)N/N=C(\C)c2ccc(-n3ccnc3)cc2)c1	-19	-23	-7	i	5	0	-5	-4
Cc1cc(S(=O)(=O)N(Cc2ccc(F)cc2)CC2CCCO2)ccc1-n1cnnn1 (stereo not given)	·	-3	6	i	0	-1	0	6
O=C(NCC(=O)N(c1ccccc1)C(C(=O)NC1CCCCC1)c1cccnc1)c1cccs1 (stereo not given)	56*	-23	-1	i	4	8	-16	-10
O=C(OCC(=O)N1CCCC1)c1ccco1	·	-2	5	i	-1	-1	-11	9
CCOC(=O)c1c(C)[nH]c(C(=O)OCC(=O)Nc2cc(C)nn2-c2ccccc2)c1C	7	-15	·	i	-5	-8	-20	·
O=C(NCCc1ccccc1)C(c1cccs1)N(C(=O)CCl)c1ccc(Cl)cc1 (stereo not given)	14	·	3	i	-29	-34	64	1
O=C(N=Nc1c(O)[nH]c2ccc(Br)cc12)c1ccccc1-n1cccc1	·	0	1	i	-8	-18	80*	11
CCN(CC)CCCn1c(SCC(=O)NCC2CCCO2)nc2ccccc2c1=O (stereo not given)	-6	-5	·	·	-1	4	·	·
C#Cc1ccc([C@@H]2C=C(C(=O)NC3CC3)O[C@H](OCC)[C@H]2CCCO)cc1	1	-6	-2	i	0	1	-3	1
CCc1nnc(SCC(=O)Nc2ccc3c(c2)OCO3)n1CC	-19	0	-3	i	1	3	-30	-5
COc1ccc(C)cc1NC(=O)c1ccc2c(=O)n3c(nc2c1)CCCCC3	8	-19	·	i	2	-1	14	·
Cc1[nH]n(-c2nc(-c3ccccc3)cc(=O)[nH]2)c(=O)c1CCO	-24	-6	-4	i	12	8	9	-11
CCCCSC(=O)Nc1ccccc1	-5	-3	10	i	-3	-3	-9	4
O=C(Nc1ccc(F)c(Cl)c1)C1Cc2c(-c3ccccc3Oc3ccccc3)ccnc2O1 (stereo not given)	?	-18	·	·	-9	-24	·	·
CCC(C)[C@H](NC(=O)NCc1cccs1)C(=O)O (stereo not given in full)	·	-15	-4	i	7	6	·	-2
CCn1c(SCC(=O)N(C)c2c(N)n(Cc3ccccc3)c(=O)[nH]c2=O)nnc1-c1cccs1	-2	12	·	·	1	2	·	·
O=C(CSc1nnc(NC(=O)c2ccccc2[N+](=O)[O-])s1)NCC1CCCO1 (stereo not given)	-12	-10	-3	i	-2	4	-14	4
CCCCn1c(N)c(N(CCOC)C(=O)c2cc(-c3ccncc3)nc3ccccc23)c(=O)[nH]c1=O	7	-13	-5	i	-3	-1	-11	4
O=C1/C(=C/c2cccnc2)SC(=S)N1c1ccccc1	4	·	-12	i	-2	1	-5	-16
CCCSc1cc(N2CCOCC2)nc(-c2ccccc2Cl)n1	·	-11	-13	i	-4	-6	10	-6
N#CCOc1ccccc1P(=O)(c1ccccc1)c1ccccc1	-6	·	3	i	8	-3	2	5
COc1cccc(/C=C/C(=O)OCC(=O)NC2CCCCCC2)c1	48	-15	·	·	1	6	·	·
N=c1c(C(=O)NC2CCCCC2)cc2c(=O)n3ccccc3nc2n1Cc1ccccc1	-8	-16	-1	i	-2	-7	1	-5
CNC(=O)N(O)C1N(/N=C/c2ccc(C)cc2)C(=S)SC1(C)C (stereo not given)	-3	-5	4	i	-1	1	-10	6
Cc1ccc(/C=N/n2c(=O)c(C(C)(C)C)nn3cnnc23)cc1	1	·	-11	i	2	1	-12	-5
Cc1ccccc1OCc1nnc(SCC(=O)NC2CCCCC2)o1	6	-17	-4	·	-7	0	-9	-6
COc1ccc2cc(C(=O)N3CCC(Cc4ccccc4)CC3)[nH]c2c1	1	-8	-7	i	-1	-3	1	-2
CCc1ccccc1Nc1nc(N)nc(CSc2nnnn2C)n1	16	·	-7	·	0	2	2	2
CC(=O)CSc1nnc(-c2ccc3c(c2)OCO3)o1	-47	-55	-4	i	0	5	13	7
Cc1cccc(-n2c(SCC(=O)N3CCN(c4ccccn4)CC3)nnc2N2CCOCC2)c1	·	2	·	·	-5	4	-10	·
Cc1ccc2cc(C#N)c(SCC(=O)Nc3ccc4sc(C)nc4c3)nc2c1	·	·	-1	i	·	·	·	-7
CC(=O)c1cccc(Nc2nc(-c3ccccc3)nc3ccccc23)c1	22	-7	-10	i	3	-7	5	-6
CCOC(=O)c1c(NC(=O)c2cccs2)sc2c1CCCC2	·	-11	-4	i	-6	-7	8	-4
Cc1cccc(NC(=O)c2nc[nH]c2C(=O)NCCCNC(=O)c2[nH]cnc2C(=O)Nc2cccc(C)c2)c1	?	-13	·	·	-9	-6	77*	·
O=C(NCc1cccnc1)c1ccccc1[N+](=O)[O-]	10	·	14	i	0	3	4	11

Reformatted: 3 of the compounds above.
| smiles | Env fusion inh | Yeast UUG start | eIF4H inh | Rce1 inh | MT1-MMP act inh | MT1-MMP act inh RFP | CSC inhib | PABP FP inh |
| --- | --- | --- | --- | --- | --- | --- | --- | --- |
| CCOC(=O)c1c(NC(=O)c2cccs2)sc2c1CCCC2 | · | -11 | -4 | i | -6 | -7 | 8 | -4 |
| Cc1ccccc1OCc1nnc(SCC(=O)NC2CCCCC2)o1 | 6 | -17 | -4 | · | -7 | 0 | -9 | -6 |
| Cc1ccc2cc(C#N)c(SCC(=O)Nc3ccc4sc(C)nc4c3)nc2c1 | · | · | -1 | i | · | · | · | -7 |

(more compounds)
SMILES	Env fusion inh	Yeast UUG start	eIF4H inh	Rce1 inh	MT1-MMP act inh	MT1-MMP act inh RFP	CSC inhib	PABP FP inh
CC(C)CCn1c(Cl)nc2c1c(=O)n(C)c(=O)n2C	-35	-16	-7	i	0	-3	-16	3
COc1ccc(S(=O)(=O)N2CCCCC2)cc1NC(=O)c1ccc(OC)c(OC)c1	20	-9	·	·	1	2	·	·
CN(C)c1ccc(CN(C(=O)COc2ccccc2)C2CCS(=O)(=O)C2)cc1 (stereo not given)	-78	46	1	i	-5	-1	-15	-1
O=C(COC(=O)Cc1cccc(C(F)(F)F)c1)Nc1cccc2ccccc12	-5	·	-8	i	5	5	4	-7
CN(C)c1ccc(C(C(=O)NCC2CCCO2)N(Cc2ccccc2)C(=O)c2snc(C(N)=O)c2N)cc1 (stereo not given)	12	-5	5	i	-3	-3	-2	2
CCCCn1c(=O)[nH]c2c(oc3ccccc32)c1=O	5	-1	-3	i	-2	-1	3	-5
O=C(Nc1ccc(OC(F)(F)F)cc1)c1ccc2nc[nH]c2c1	-15	-15	7	i	6	-1	·	2
Cc1[nH]c2ccccc2c1/C=N/NC(=O)c1ccccc1	-2	·	-3	i	3	-1	-9	3
O=C1CNC(=O)/C(=C\c2ccc(F)cc2)N1	-6	-23	2	i	2	3	·	-3
Cc1nn(Cc2c(Cl)cccc2Cl)c(C)c1NC(=O)/C=C/c1cnn(C)c1C	-46	-3	-13	i	1	2	·	5
O=C(NCCC1CCCCN1S(=O)(=O)c1ccccc1)C(=O)Nc1ccccc1 (stereo not given)	-7	8	·	i	6	-9	-12	·
Nc1c(-c2ccccc2)c(CN2CCOCC2)nn1-c1ccc(C(=O)O)cc1	-10	-5	2	i	2	6	-22	-9
CCCCN(CC)C(=O)c1oc2ccc(S(=O)(=O)N3CCCC3)cc2c1C	-4	18	·	i	-2	-2	-9	·
CCCS(=O)(=O)c1nc(S(=O)(=O)c2ccc(C)cc2)c(N2CCOCC2)s1	-71	-13	-12	i	-4	1	-8	3
CC(C)CC(c1nnnn1Cc1ccc2c(c1)OCO2)N1CCC(C(N)=O)CC1 (stereo not given)	15	-2	-7	i	4	0	-7	-4
CN1CCN(C(=O)CN(c2cc(C(F)(F)F)ccc2Cl)S(C)(=O)=O)CC1	·	5	-7	i	0	1	-5	-1
Cc1cc(C)cc(C(=O)N2CCN=C2c2ccccc2)c1	-217	·	1	i	1	2	-15	-4
CCOc1ccccc1/C=C/c1cc(C(=O)O)c2ccccc2n1	-8	·	0	i	1	4	-12	19
O=C(NCC1CCCO1)c1ccc2c(c1)S(=O)(=O)c1ccccc1C2=O (stereo not given)	1	22	·	i	5	7	-3	·
CCN(CC(=O)NCc1cccs1)C(=O)c1ccc(-c2cccc(C(F)(F)F)c2)o1	3	-9	·	i	-8	-8	-8	·
CCC(C)NC(=O)c1ccccc1NC(=O)CN(c1cc(C)ccc1OC)S(C)(=O)=O (stereo not given)	3	·	6	i	-3	-1	-10	5
CSc1c(CC(=O)Nc2ccccc2)n(Cc2ccccc2)c2ccccc12	9	·	-9	i	-10	-14	-6	0
COc1ccc(NC(=O)NNC(=O)c2ccc3ccccc3c2O)c(OC)c1	21	-14	-4	i	-6	3	5	-2
CCn1cc(/C=N\NC(=O)COc2cccc(C)c2C)c(C)n1	1	·	-3	i	9	3	-19	-2
CCc1ccc(N(CC(=O)NCc2ccc(F)cc2)C(=O)c2csnn2)cc1	-18	-7	1	i	-2	0	-7	7
O=C(CSc1ccc2ccccc2c1)Nc1ncccn1	13	·	11	i	2	6	6	9
CCOC(=O)C1=C(N)n2c(s/c(=C\c3cccnc3)c2=O)=C(C(=O)OC)C1c1cccnc1 (stereo not given)	·	-5	·	i	2	1	-2	·
OC(COCC1COc2ccccc2O1)CN1CCN(c2ccccn2)CC1 (stereo not given)	7	-12&7	-8	i	5&0	5&3	5	25
Oc1cccc(-c2nc3ccc4ccccc4c3c3c2CCC3)c1	·	·	4	i	-1	-3	-5	6
O=C(O)c1ccccc1/C=N/NC(=S)NCc1ccccc1	11	-21	-3	i	0	2	-6	2
Nc1ccc2nc(CCc3ccccc3)[nH]c2c1	·	·	2	i	7	3	-5	8
O=S(=O)(Nc1cccc(-n2cnnn2)c1)c1ccc(Cl)cc1	10	·	5	i	1	-4	-12	-1
O=C(CN1CCOCC1)N1c2ccccc2Sc2ccccc21	-9	15	-4	i	1	1	-5	-3
O=C(NCCc1ccc(Cl)cc1)C1CCN(S(=O)(=O)N2CCCC2)CC1	·	-8	-1	i	6	-2	-2	4
COc1ccc(Cn2nnc3c(C)n[nH]c(=O)c32)cc1	8	-6	-3	i	0	0	-2	-1
Cc1ccc(C(=O)NCC(=O)Nc2ccc(S(=O)(=O)Nc3cc(C)nc(C)n3)cc2)cc1	·	-10	·	·	0	2	-4	·
Cn1nccc1NC(=O)Nc1cccc([N+](=O)[O-])c1	0	·	-6	i	0	-2	-7	-1
CC1CC(C)(C)NC(=S)N1CCCC(=O)Nc1ccc(F)c(F)c1 (stereo not given)	6	·	-6	i	3	1	-14	8
COc1ccc(CCC(=O)OCC(=O)Nc2sccc2C(N)=O)cc1	·	-12	·	·	0	-2	-18	·
CCCCCOc1ccc(/C=c2\sc3nc(=O)c(-c4ccccc4)nn3c2=O)cc1OC	0	·	16	i	-4	-27	29	-16
CCOC(=O)N1CCC(NC(=O)c2cc(C(=O)Nc3ccc(OC)c(OC)c3)ccc2CO)CC1	·	-10	-9	i	-4	-5	22	-2
CC(OC(=O)c1ccc2ccccc2n1)C(=O)Nc1ccc(N2CCOCC2)cc1 (stereo not given)	·	-11	-6	·	-3	0	-12	1
